PrP 5UTR inh: inhibition of PrP 5' UTR reporter expression; AID 488862; hit rate 0.35% among 340,000; cell-based PrP 5' UTR mRNA reporter, plate reader; inhibition, % (no concentration beside the values);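 active = every replicate at 50% or more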;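 also: 0 = median of the neutral control wells; tested in H4 reporter cells; numbers are from one replicate; inactives centre near -14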
Sa RN4220 lethal: S. aureus RN4220 growth inhibition; OD600, 16 h; hit rate 0.33% among 330,000; inhibition, % (no concentration beside the values);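 active = z-score of -3 or lower and OD600 up to 0.18 on both plates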;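 also: plate controls were untreated cells for no effect and reference antibiotic for full effect; stock transfer was 100 nL into about 80 µL; one replicate is shown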
Sa ugtP lethal: growth inhibition of S. aureus ugtP deletion strain | growth inhibition, % (concentration not given with the values) | hit rate 0.54% among 330,000 | S. aureus RN4220 ugtP deletion, OD600 growth, 16 h; some inactives read as strong as hits | AID 1259309;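 active = z-score under -3 and OD600 up to 0.15 on both plates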;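 also: plate controls were untreated wells for no effect and antibiotic for full effect; wells of about 80 µL received 100 nL stock; the first replicate is given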
Mtb hypoxia rep: inhibitors of hypoxia-regulated fluorescent reporter in Mycobacterium tuberculosis; M. tuberculosis hypoxia-regulated fluorescent reporter, fluorescence; fluorescence inhibition, % (test concentration not listed); hit rate 0.1% among 300,000;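 active = 35 to 45% if threefold the growth effect, above 45% if 1.5-fold the growth effect; inactive = the rest, general growth blockers included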;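 also: wells of about 50 µL received 100 nL stock; 0% = vehicle wells and 100% = reference inhibitor wells; whole bacteria with a GFP reporter of the hypoxia response; strong numbers were not always called active; many hits fall short of the cut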
BJeLR viability: kills HRASV12-expressing BJeLR cells; hit rate 0.17% among 300,000; BJeLR (HRASV12) viability, CellTiter-Glo ATP luminescence, 48 h; reference of the scale not given here; inhibition, % (concentration not given with the values); AID 1554;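 active = replicate mean above 50%; inconclusive = above 50% but judged a plate artefact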;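 also: 50 nL library stock added to about 25 µL; numbers are from one replicate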
Autofluor counter: compound fluorescence in toxin protease inhibitor counterscreen | fluorescence intensity (concentration not given with the values) | compound autofluorescence counterscreen, microsphere flow cytometry; stronger effect = higher value | hit rate 3.1% among 360,000;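 active = at least 3 SD above the mean of all compounds, about 16000 in these data; inconclusive = too few beads counted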;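 also: 100 nL of 1 mM stock went into each well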
Mtb hypoxia rep growth: recorded beside Mtb hypoxia rep, whose call it bears; growth inhibition, %; measured here: M. tuberculosis growth (absorbance);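 0% = vehicle and 100% = reference antibiotic; read after six days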
Numbers without * were called inactive; ? = inconclusive; · = not tested or not shown.

SMILES	PrP 5UTR inh	Sa RN4220 lethal	Sa ugtP lethal	Mtb hypoxia rep	Mtb hypoxia rep growth	BJeLR viability	Autofluor counter
COc1ccc(OC)c(S(=O)(=O)N2CCN(CC(O)CN3CCOCC3)CC2)c1 (stereo not given)	-2	4.1	6	4	-1	·	7940
C/C(=N\NC(=O)c1cccnc1)c1ccc(-n2ccnc2)cc1	-4	·	·	·	·	-14	2187
COc1ccc(N=C2S/C(=C\c3ccco3)C(=O)N2CC(C)C)cc1	-20	·	·	·	·	-10	2748
CCCCCCCC=NNc1nnc(Cc2ccccc2)c(=O)[nH]1	·	4.3	0	6	-6	·	·
c1csc(-c2cc(N3CCCCC3)c3ccccc3n2)c1	-18	11	29	0	5	-9	3786
O=C(Cc1ccc(Cl)cc1Cl)Nc1ccncc1Cl	-8	1.6	8	9	3	5	6574
O=C(COc1ccc2c3c(c(=O)oc2c1)CCCC3)NCCCN1CCCC1=O	-10	0.0	6	16	7	7	5266
CCCCN(C)C(=O)c1oc2ccc(S(=O)(=O)N3CCCCCC3)cc2c1C	-16	3.3	-16	-7	4	5	23104*
CCc1cc(CNC(=O)CCc2nnc(CCCc3ccccc3)o2)on1	-122	1.8	7	2	-8	-3	4238
N#Cc1cccnc1Oc1ccccc1	-24	3.6	5	8	4	-6	4428
CC(=O)c1cc2c(cc1NC(=O)Cc1ccsc1)OCO2	-26	5.6	4	-2	-3	·	3543
CCc1nnc(NC(=O)C2Cc3ccccc3CN2S(=O)(=O)c2ccc(C)cc2)s1 (stereo not given)	-29	0.9	-15	-1	5	-18	3940
CCOc1c(Cl)cc(CNCC(C)C)cc1OC	-21	-2.7	-1	8	11	3	24375*
CCN(CC(=O)Nc1cc(Cl)ccc1C)C(=O)c1cc([N+](=O)[O-])ccc1N1CCOCC1	-9	2.8	0	-2	14	5	?
CCCCNC(=O)C(=O)NN=Cc1ccc(OCc2ccccc2)cc1	·	1.5	-4	4	2	·	·
C=CCN(C(=O)Cn1nc(C)n2c(cc3cc(C)ccc32)c1=O)c1ccccc1	-15	-3.1	-3	-1	-5	2	3981
CCOC(=O)c1cc(C#N)c(SC)nc1C	0	5.3	8	2	8	-14	3294
COc1ccc(/C=N/NC(=O)c2cccnc2)c(C(=O)O)c1OC	-35	·	·	·	·	-1	4570
O=C(/C=C/Nc1ccc(F)cc1)c1ccco1	-83	·	·	·	·	2	2914
CC1(C)Oc2ccc(C(=O)NC3CCCC3)cc2N(CC(=O)NC2CCCCC2)C1=O	-7	2.1	3	8	3	-3	17996*

Grouped by structure: those above with a cyano group (two)
SMILES	PrP 5UTR inh	Sa RN4220 lethal	Sa ugtP lethal	Mtb hypoxia rep	Mtb hypoxia rep growth	BJeLR viability	Autofluor counter
N#Cc1cccnc1Oc1ccccc1	-24	3.6	5	8	4	-6	4428
CCOC(=O)c1cc(C#N)c(SC)nc1C	0	5.3	8	2	8	-14	3294

Additional records follow.
SMILES	PrP 5UTR inh	Sa RN4220 lethal	Sa ugtP lethal	Mtb hypoxia rep	Mtb hypoxia rep growth	BJeLR viability	Autofluor counter
CC1CCc2nc(C(C#N)=Cc3cccnc3)sc2C1 (stereo not given)	·	5.7	-7	6	3	·	·
Cc1ccc(F)cc1NC(=O)CSc1nnc(CNC(=O)c2ccco2)n1C	-9	3.5	-2	-11	-1	2	?
Cc1cc(C)cc(N(CC(=O)NCc2ccco2)C(=O)CCC(=O)Nc2ccccn2)c1	-8	-1.2	0	·	·	3	3546
Cc1cc(O)c(-c2cc(C(=O)Nc3ccc(S(=O)(=O)N4CCOCC4)cc3)[nH]n2)cc1C	-29	0.6	16	-3	-7	16	7660
CCc1ccc(N(C(=O)c2csnn2)C(C(=O)NC2CCCCC2)c2cccnc2)cc1 (stereo not given)	-7	-0.3	0	-5	12	-3	3850
COc1ccccc1CC(=O)Nc1ccc(-c2nnc(-c3ccco3)o2)cc1	-16	-7.3	-12	7	14	8	8899
Cc1sc2nc(-c3ccco3)oc(=O)c2c1C	-9	2.0	-1	·	·	-1	2741
CCOc1cc(C=NNc2nc3ccccc3[nH]2)cc(Br)c1OCC(=O)N(C)C	·	-13	-1	0	15	·	·
CC(O)Cc1cn(-c2cc3cc(C#Cc4ccsc4)ccc3oc2=O)nn1 (stereo not given)	·	11	9	11	9	·	·
COC(=O)NN=Cc1ccccc1OCCOc1ccc(OC)cc1	·	9.7	1	9	12	·	·
CCCCn1c(N)c(N(CCOC)C(=O)COc2c(C)cccc2C)c(=O)[nH]c1=O	-13	2.2	4	-5	-7	5	7452
CCn1c(CC(=O)Nc2ccc(Cl)cc2)nnc1SCC(=O)N1CCOCC1	-19	2.7	-2	2	1	3	5123
CCSc1nnc(NC(=O)Cc2ccc(OC)c(S(=O)(=O)N3CCOCC3)c2)s1	-25	0.8	-2	12	7	-12	3735
Cc1ccc(C)c(C(=O)COc2ccc(C)nc2[N+](=O)[O-])c1	-10	5.0	2	·	·	6	2383
Cc1nc(/C(=N/O)C(N)=O)cs1	-6	·	·	·	·	5	4135
COc1ccccc1CN1CC(C(=O)NCCCc2ccc(F)cc2)CCC1=O (stereo not given)	6	-3.3	-7	-2	-4	4	5428
Cn1c(C(=O)N2COCC2(C)C)cc2c(=O)n3ccccc3nc21	-35	5.1	3	8	15	1	?
Cc1cccc2sc(NC(=O)C3=NN(c4ccccc4)C(=O)CC3)nc12	-10	4.6	-7	1	13	-1	2442
COCCn1c(=O)[nH]c2cc(C(=O)OC)ccc2c1=O	-12	5.4	4	2	11	-4	3847
N/C(=N\OC(=O)c1cc(-c2ccccc2)nc2ccccc12)c1ccncc1	-14	1.2	-13	5	6	3	12783
Cc1ccc(CSc2ccc(C(=O)N3CCOCC3)cc2[N+](=O)[O-])cc1	-27	3.4	3	10	5	0	4157
O=C1CCCc2nc(N3CCCCC3)sc21	-38	0.6	-3	·	·	0	4327
N#C/C(=C/C=C/c1ccccc1)C(=O)Nc1ccccc1	-10	1.4	4	5	2	3	18225*
CCCn1c(=O)c(C(=O)c2ccccc2)nc2ccccc21	-8	6.9	15	11	1	-6	15413
CC1(c2nnc(Cc3ccccc3)o2)CC(c2ccc(OC(F)(F)F)cc2)=NO1 (stereo not given)	-11	-5.1	0	9	7	7	4009
COc1ccc(N(CC(=O)Nc2ccccc2C(=O)N2CCCC2)S(C)(=O)=O)cc1	-30	0.7	11	3	6	12	5003
COC(=O)NN=Cc1cccnc1	·	5.6	10	6	4	·	·
Cc1ccc(-n2nc(N)c3c(=O)oc(N(C)C)nc32)cc1	-20	2.8	0	4	5	-13	23386*
Cc1nc(SCCO)c2oc3ccccc3c2n1	-11	4.6	-10	0	-5	8	8022
Cc1nnc(NC(=O)CSc2nnc(Cc3cccn3C)n2-c2cccc(C)c2C)s1	·	10	7	1	-1	-7	·
CCCCC(=O)Nc1ccc(Cl)cn1	-32	7.6	6	3	4	-5	12249
CN(Cc1ccccc1)C(=O)COC(=O)c1ccc(Cl)cc1N	-20	0.6	6	-2	-9	2	4349
CC(NC(=O)c1ccco1)C(=O)O (stereo not given)	-18	9.0	9	3	-2	·	3045
COc1ccc(Nc2nc(C(=O)N3CCc4ccccc4C3)cs2)cc1	-13	15	4	1	9	-2	4735
COc1ccc(-c2cc(=O)[nH]c(=S)[nH]2)cc1	-10	·	·	·	·	-4	4616
O=C(CCN1C(=O)c2ccccc2S1(=O)=O)NCc1ccc(F)cc1	-16	1.8	4	1	5	-1	?
c1ccc(Cn2nnc3c(NCC4CCCO4)nc(C4CC4)nc32)cc1 (stereo not given)	-8	1.6	1	1	9	0	4361
O=C(c1cc2nc(-c3ccccc3)cc(C(F)(F)F)n2n1)N1CCOCC1	-16	-0.1	21	6	10	-3	21930*
Cc1nnc(SCC(=O)N2c3ccccc3CC2C)[nH]c1=O (stereo not given)	-19	3.1	0	-20	-28	17	3289
COC(=O)c1ccc(NC(=O)CN(C2CCCCC2)S(C)(=O)=O)cc1	-8	-2.7	-7	-8	3	7	3905
Cc1ccc(SCCc2cc[n+](CC(=O)c3ccccc3)cc2)cc1	-27	3.1	8	11	6	·	7594
O=C(Nc1ccc(Br)cc1)c1cccc(NC(=O)C2C3CC4OC(=O)C2C4C3)c1 (stereo not given)	-20	7.3	6	10	14	0	6232
C/C=C(\C)C(=O)OC1c2c(ccc3ccc(=O)oc23)OC(C)(C)C1OC(C)=O (stereo not given)	-6	5.9	-6	6	9	-13	4503
COc1ccc(C(CC(=O)O)n2cnnn2)cc1 (stereo not given)	-12	4.2	3	9	3	-5	3594
COc1cc(C2OC(=O)c3ccccc3S2)cc(OC)c1OC (stereo not given)	-29	1.6	14	17	4	3	4373
O=C(COc1ccc(Cl)cc1)NC1=NN(c2ccccc2)C(=O)C1	13	13	23	13	4	1	1987
O=C(O)C=Cc1ccc(O)c(O)c1	·	8.8	0	11	2	·	·
CC(=O)Nc1ccc(NC(=O)CC2(CC(=O)N3CCOCC3)CCCC2)cc1	-11	2.9	5	1	-1	·	6291
O=C(c1ccc(Cl)cc1)C1CCCN(Cc2cccc3ncccc23)C1 (stereo not given)	-13	5.2	11	3	13	11	4936
N#Cc1ncc(-c2ccc3c(c2)OCCOCCOCCOCCOCCO3)nc1C#N	-12	3.2	-5	11	9	-2	10618
COc1ccccc1CN(Cc1ccco1)S(=O)(=O)c1ccc(-n2cnnn2)c(OC)c1	-1	9.4	23	4	4	-5	12155
Cc1cccc(OCC(=O)NCC(=O)N=Nc2c(O)[nH]c3ccc([N+](=O)[O-])cc23)c1	9	1.1	-12	0	6	3	5238
COc1ccccc1N(CC(=O)NCCc1ccccc1)C(=O)CCC(=O)Nc1nccs1	-10	4.8	6	0	-7	-7	3270
O=C1C2=C(c3ccccc31)[N+](=O)[C@@H]1CCCC[C@@H]1N2[O-]	-15	19	13	4	10	4	5296
COCCN(C(=O)Cc1cccs1)C(C(=O)NCc1ccc(OC)cc1)c1ccc(C(C)C)cc1 (stereo not given)	-25	3.3	-2	15	4	-2	11624
CC(C)CN1CC(C(=O)O)CC1=O (stereo not given)	-15	-0.3	-1	-14	17	3	4797
COC(=O)/C=C1/S/C(=N/NC(=O)c2ccccc2C)NC1=O	6	1.5	-3	20	29	-4	5990
COc1ccc(CCN2C(=O)CC(Nc3ccc(N4CCOCC4)cc3)C2=O)cc1OC (stereo not given)	-5	-3.7	2	·	·	-5	4366

Compound profiles, from the list above:
O=C(Nc1ccc(Br)cc1)c1cccc(NC(=O)C2C3CC4OC(=O)C2C4C3)c1 (stereo not given) is entered as PrP 5UTR inh: -20; Sa RN4220 lethal: 7.3; Sa ugtP lethal: 6; Mtb hypoxia rep: 10; Mtb hypoxia rep growth: 14; BJeLR viability: 0; Autofluor counter: 6232
Cc1cccc(OCC(=O)NCC(=O)N=Nc2c(O)[nH]c3ccc([N+](=O)[O-])cc23)c1 is entered as PrP 5UTR inh: 9; Sa RN4220 lethal: 1.1; Sa ugtP lethal: -12; Mtb hypoxia rep: 0; Mtb hypoxia rep growth: 6; BJeLR viability: 3; Autofluor counter: 5238

In another format: results already given
SMILES: O=C(COc1ccc(Cl)cc1)NC1=NN(c2ccccc2)C(=O)C1
  PrP 5UTR inh = 13
  Sa RN4220 lethal = 13
  Sa ugtP lethal = 23
  Mtb hypoxia rep = 13
  Mtb hypoxia rep growth = 4
  BJeLR viability = 1
  Autofluor counter = 1987

SMILES: O=C(O)C=Cc1ccc(O)c(O)c1
  PrP 5UTR inh = ·
  Sa RN4220 lethal = 8.8
  Sa ugtP lethal = 0
  Mtb hypoxia rep = 11
  Mtb hypoxia rep growth = 2
  BJeLR viability = ·
  Autofluor counter = ·

SMILES: CC(=O)Nc1ccc(NC(=O)CC2(CC(=O)N3CCOCC3)CCCC2)cc1
  PrP 5UTR inh = -11
  Sa RN4220 lethal = 2.9
  Sa ugtP lethal = 5
  Mtb hypoxia rep = 1
  Mtb hypoxia rep growth = -1
  BJeLR viability = ·
  Autofluor counter = 6291

SMILES: O=C(c1ccc(Cl)cc1)C1CCCN(Cc2cccc3ncccc23)C1 (stereo not given)
  PrP 5UTR inh = -13
  Sa RN4220 lethal = 5.2
  Sa ugtP lethal = 11
  Mtb hypoxia rep = 3
  Mtb hypoxia rep growth = 13
  BJeLR viability = 11
  Autofluor counter = 4936

Compound activity as filed in PubChem BioAssay.
